High-throughput results deposited in PubChem BioAssay by several laboratories.
ALR H2O2 inh: inhibitors of human sulfhydryl oxidase ALR | purified ALR, DTT oxidation, H2O2 HRP-luminol luminescence | 290,000 tested, 3.8% active | inhibition, % (test concentration not listed);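 active means mean and each replicate at 75% or more; inconclusive means only one of the two met; inactive means neither met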;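 further: stock transfer was 7.5 nL into about 7.5 µL; 0% = neutral wells and 100% = wells with inactivated enzyme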
Target sequence (P55789 whole entry, looked up): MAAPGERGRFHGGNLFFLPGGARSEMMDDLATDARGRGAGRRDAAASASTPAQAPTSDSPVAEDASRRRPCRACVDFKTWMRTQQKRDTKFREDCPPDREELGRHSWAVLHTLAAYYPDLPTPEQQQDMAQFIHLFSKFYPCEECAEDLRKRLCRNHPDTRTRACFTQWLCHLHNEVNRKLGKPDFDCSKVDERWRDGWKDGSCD
Vif TR-FRET: HIV-1 Vif–A3G interaction blockers – biochemical, TR-FRET, GST-Vif 1-94, biotin-A3G peptide, dose response retest, primary screen (AID 1117319) | TR-FRET GST-Vif / biotin-A3G peptide binding; higher % means a stronger effect; test concentration not given here; strong numbers were not always called active | one-dose inhibition, %; IC50 in µM for titrated hits | 260,000 tested, 0.57% active;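 active means above the screen mean plus three standard deviations and confirmed in dose response; inconclusive means results disagree or hit not tested in dose response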;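 further: Vif residues 1-94 fused to GST binding biotinylated APOBEC3G peptide 110-148; 0% = full assay without inhibitor and 100% = GST in place of GST-Vif; retest series ran down from 100 µM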
HNF4A DNA FP: change in binding of human HNF4 alpha to DNA | P41235 | HNF4a-FITC DNA binding, fluorescence polarization, 1 h | activity change, % at 10 µM | 360,000 tested, 0.3% active | AID 1224865; in the data active means activity change above about 30%, passing the limit was not always enough;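 further: controls were the assay level and a saturating level of protein; the project sought stronger binding though the title names inhibitors; some compounds called inactive have numbers as strong as hits; positive values seem to mean higher polarization but the record does not say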
Target sequence (P41235 whole entry, looked up): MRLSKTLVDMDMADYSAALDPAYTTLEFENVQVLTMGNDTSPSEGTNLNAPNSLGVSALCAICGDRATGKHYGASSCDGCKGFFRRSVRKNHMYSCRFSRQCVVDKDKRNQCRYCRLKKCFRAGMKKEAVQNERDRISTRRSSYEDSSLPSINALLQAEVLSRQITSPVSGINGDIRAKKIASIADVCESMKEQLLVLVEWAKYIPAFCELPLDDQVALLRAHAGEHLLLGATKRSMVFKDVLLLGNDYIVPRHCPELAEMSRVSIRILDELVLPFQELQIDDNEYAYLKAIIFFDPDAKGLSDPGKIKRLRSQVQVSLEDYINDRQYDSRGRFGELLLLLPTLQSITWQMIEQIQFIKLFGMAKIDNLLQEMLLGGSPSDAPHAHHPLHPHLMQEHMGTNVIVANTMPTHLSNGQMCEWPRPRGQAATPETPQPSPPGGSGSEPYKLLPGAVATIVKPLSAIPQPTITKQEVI
MLL AF4-AF9 inh: inhibitors of human MLL-AF4/AF9 interaction; P42568; AlphaScreen, biotin-AF4 peptide binding to FLAG-AF9; inhibition, % at 10 µM; 350,000 tested, 0.47% active; AID 651704;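 active means every replicate reaching a set inhibition limit, whatever the replicate mean, cut at about 25% in these data; inconclusive means mean inhibition reaches that limit but some replicates miss it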;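 further: 0% = plate neutral control median and 100% = total signal loss; the record names both 10 and 1 µM as test concentration; the first replicate is given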
Ecoli growth: E. coli growth inhibition; Escherichia coli growth, OD600, 23 h; hits give low values; OD600 absorbance (concentration not given with the values); 330,000 tested, 0.21% active;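 active means OD600 absorbance below the run mean of sample wells minus 3.6 SD, in any replicate, cut at about 0.56 in these data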;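 further: stock transfer was 300 nL into about 60 µL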
rRNA inh HTS: inhibits bacterial ribosomal RNA function over humanized ribosomes; E. coli WT GFP vs humanized-ribosome RFP mutants, fluorescence, 24 h; hits give low values; DMSO median 0, no signal -100; GFP signal change (wild-type ribosome), % (no concentration beside the values); 350,000 tested, 1.6% active; AID 720706;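 active means significant combined selectivity score with lowered wild-type GFP, culture density cut under 30%, mutant RFP and density less affected; inactive means any of these conditions unmet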; further: one replicate is shown; some compounds called inactive have numbers as strong as hits
FGF22 binding: shifts melting point of recombinant human FGF22. calls only at 9.99 µM. 340,000 tested, 1.5% active. recombinant FGF22 thermal shift, SYPRO orange fluorescence; percent of sucrose octasulfate shift, DMSO zero. Q9HCT0;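 active means melting point raised past a set limit in the mean and every replicate; inconclusive means no clear call; three in four hits are not shown here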
Target sequence (Q9HCT0 whole entry, looked up): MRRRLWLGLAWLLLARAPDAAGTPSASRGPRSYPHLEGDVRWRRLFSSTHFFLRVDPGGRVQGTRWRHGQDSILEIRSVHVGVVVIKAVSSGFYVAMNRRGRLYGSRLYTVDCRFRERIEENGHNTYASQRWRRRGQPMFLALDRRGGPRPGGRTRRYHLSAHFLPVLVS
rRNA inh HTS OD600: also measured in rRNA inh HTS; calls as there; OD600 change, %; measured here: OD600 growth;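 optical density of the mix in the first replicate; 0 = DMSO median and -100 = no signal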
rRNA inh HTS RFP: also measured in rRNA inh HTS; calls as there; RFP signal change, %; measured here: RFP humanized mutant strains;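 first replicate; 0 = DMSO median and -100 = no signal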
* marks the source's active call; other numbers are inactive results; i = inactive; u = inconclusive; x = no result given. An excerpt; the hit share may differ from the screen's.

1) CSCCC(=O)NC1CC(C)(C)Cc2c1cnn2-c1ccccc1C (stereo not drawn)
2) Cn1nc(-c2ccccc2)c(C(=O)NCC(=O)O)c1Cl
3) Cc1ccc(C(=O)N2CCN(C(=O)N3CCOCC3)CC2)cc1
4) CCOC(=O)c1ccc(N2C(=O)c3n[nH]c(C)c3C2c2ccco2)cc1 (stereo not drawn)
5) COCCn1c(SCC(=O)c2c(N)n(C)c(=O)n(C)c2=O)nc2ccccc21
6) C[C@H](O)C#Cc1ccc2c(c1)O[C@H](CN(C)Cc1ccccn1)[C@@H](C)CN([C@@H](C)CO)S2(=O)=O
7) COc1cc(C)ccc1OCCCON1C(=O)CCC1=O
8) Cc1ccc(-c2cc(C(=O)N3CCCCC3)c3ccccc3n2)cc1C
compound no.	1	2	3	4	5	6	7	8
ALR H2O2 inh	-1	-13	-4	15	0	x	-4	0
Vif TR-FRET	x	8%	-1%	-2%	-9%	x	u	x
HNF4A DNA FP	3.5	-0.6	-1.7	-2.0	0.7	x	3.7	24
MLL AF4-AF9 inh	-3.7	-12	x	x	-0.5	2.2	x	-0.5
Ecoli growth	0.69	0.73	0.71	0.71	0.67	x	0.68	0.66
rRNA inh HTS	-3	11	x	x	3	-2	x	-41
rRNA inh HTS OD600	-1	9	x	x	1	-7	x	-55
rRNA inh HTS RFP	0.5	-0.3	x	x	1.8	1.7	x	-8.8
FGF22 binding	i	i	x	x	i	i	x	i

9) COC(=O)c1c(C)[nH]c(C(=O)COc2ccc3ccc(=O)oc3c2)c1C
10) OC(CN1CCOCC1)Cn1c(-c2cccc(Cl)c2)nc2ccccc21 (stereo not drawn)
11) C=CCn1ccc(O)c(Cc2ccc(Cl)cc2)c1=O
12) COc1ccccc1-c1ccc2n(c1=O)C[C@H]1[C@H](CO)[C@@H](C(=O)N3CCOCC3)[C@@H]2N1CC1CC1
13) NC(=O)C1CN(C(=O)c2cccc(S(=O)(=O)N3CCc4ccccc43)c2)c2ccccc2O1 (stereo not drawn)
14) COCCNC(=O)C[C@@H]1CC[C@@H]2[C@H](COc3ccc(NC(=O)c4cc(C)on4)cc3C(=O)N2C)O1
15) N#CCC(=O)Nc1ccc(C(=O)OCC(=O)Nc2ccccc2-c2ccccc2)cc1
16) O=C(CC(=O)N/N=C/c1c(F)cccc1Cl)NCc1ccccc1
compound no.	9	10	11	12	13	14	15	16
ALR H2O2 inh	-1	1	3	x	-1	x	98*	-13
Vif TR-FRET	5%	7%	x	x	-1%	x	-1%	-2%
HNF4A DNA FP	1.1	-0.9	5.1	x	0.3	x	4.7	x
MLL AF4-AF9 inh	-3.3	x	-1.1	-1.1	2.3	-1.3	-1.0	-0.5
Ecoli growth	0.7	0.7	0.67	x	0.65	x	0.67	x
rRNA inh HTS	17	x	-4	2	-19	3	18	4
rRNA inh HTS OD600	15	x	-7	8	-38	-3	24	-3
rRNA inh HTS RFP	5.4	x	1.1	-3.3	-10	2.1	3.8	0.6
FGF22 binding	i	x	i	i	i	i	i	i

17) CS(=O)(=O)N(CC(=O)NCc1ccco1)c1ccc(Cl)cc1Cl
18) CC1(C)NC(=O)N(CC(O)COc2cccc(F)c2)C1=O (stereo not drawn)
19) O=C(Cn1cnc2ccccc2c1=O)NNC(=O)c1ccccc1F
20) O=C(N/N=C/C=C/c1ccccc1)c1n[nH]c2c1CCC2
21) Cc1cc2ccccc2nc1SCC(=O)NC1CCCCC1
22) COc1ccccc1-c1ccc([C@H]2[C@@H](CO)N(C(=O)C3CCCCC3)[C@H]2C#N)cc1
23) CCC(=O)N(C)C[C@@H]1Oc2ncc(C#CCC3CCCC3)cc2C(=O)N([C@H](C)CO)C[C@H]1C
24) O=C(Nc1ccc(F)cc1)C(c1cc2ccccc2o1)N1CCN(C(=O)c2ccco2)CC1 (stereo not drawn)
compound no.	17	18	19	20	21	22	23	24
ALR H2O2 inh	-7	-30	29	-19	51	x	x	x
Vif TR-FRET	u	-3%	-3%	-3%	1%	x	x	x
HNF4A DNA FP	-8.6	2.2	2.6	-1.1	3.3	x	x	4.8
MLL AF4-AF9 inh	1.5	-6.0	-1.3	x	-1.6	-0.7	-1.7	-0.1
Ecoli growth	0.68	0.77	0.68	x	0.66	x	x	x
rRNA inh HTS	9	6	9	-1	0	-32	2	-23
rRNA inh HTS OD600	8	9	9	-5	12	-57	-12	-26
rRNA inh HTS RFP	-0.3	-0.5	-0.7	-1.6	-1.7	3.8	2.5	3.6
FGF22 binding	i	i	i	x	i	i	i	i

25) Cc1cccc(-c2ccc3ncnc(NCc4cccs4)c3c2)c1
26) Cc1ccc(-n2c(SCC(=O)Nc3ccc4c(c3)OCO4)nnc2-c2ccoc2C)cc1
27) CN(C)CC(=O)Nc1ccc2c(c1)[C@@H]1C[C@H](CC(=O)NCc3cc(F)ccc3F)O[C@H](CO)[C@@H]1O2
28) COc1ccc(CCn2c(C)cc(C(=O)COC(=O)c3cnc(C)cn3)c2C)cc1
29) Cn1c(N2CCCC2)nc2c1c(=O)n(Cc1cccc(F)c1)c(=O)n2C
30) Cc1ccc(N/N=C/c2ccncc2)cc1
31) O=C(Nc1ccc(-c2cn3ccsc3n2)cc1)c1ccc(F)c(S(=O)(=O)N2CCOCC2)c1
32) CCCNC(=O)[C@@H]1[C@@H](CO)[C@@H]2Cn3c(ccc(/C=C/c4ccccc4)c3=O)[C@H]1N2C(=O)c1ccncc1
compound no.	25	26	27	28	29	30	31	32
ALR H2O2 inh	1	-10	x	0	-2	99*	0	x
Vif TR-FRET	x	-3%	x	-3%	-3%	x	-13%	x
HNF4A DNA FP	2.8	1.6	x	4.5	-2.1	-0.8	-2.7	x
MLL AF4-AF9 inh	x	x	-2.8	13	x	17	x	-1.8
Ecoli growth	0.65	0.78	x	0.68	0.72	x	0.7	x
rRNA inh HTS	-51	x	4	-14	x	4	x	-2
rRNA inh HTS OD600	-75	x	9	-16	x	4	x	-8
rRNA inh HTS RFP	-16	x	-0.5	1.1	x	0.0	x	-0.7
FGF22 binding	i	x	i	i	x	i	x	i

Quoted at random: 4 records from the list.
25) Cc1cccc(-c2ccc3ncnc(NCc4cccs4)c3c2)c1
31) O=C(Nc1ccc(-c2cn3ccsc3n2)cc1)c1ccc(F)c(S(=O)(=O)N2CCOCC2)c1
30) Cc1ccc(N/N=C/c2ccncc2)cc1
29) Cn1c(N2CCCC2)nc2c1c(=O)n(Cc1cccc(F)c1)c(=O)n2C
compound no.	25	31	30	29
ALR H2O2 inh	1	0	99*	-2
Vif TR-FRET	x	-13%	x	-3%
HNF4A DNA FP	2.8	-2.7	-0.8	-2.1
MLL AF4-AF9 inh	x	x	17	x
Ecoli growth	0.65	0.7	x	0.72
rRNA inh HTS	-51	x	4	x
rRNA inh HTS OD600	-75	x	4	x
rRNA inh HTS RFP	-16	x	0.0	x
FGF22 binding	i	x	i	x

More entries
33) CCC1CC(CSc2ncn[nH]2)OC1=O (stereo not drawn)
34) CCOC(=O)CC(=O)Nc1c(C)cc(C)cc1C
35) CC(C)CC#Cc1cnc2c(c1)C(=O)N([C@H](C)CO)C[C@@H](C)[C@@H](CN(C)C(=O)Cc1ccncc1)O2
36) N#Cc1c([N+](=O)[O-])cc([N+](=O)[O-])cc1S(=O)(=O)Cc1ccccc1
37) Cc1ccccc1NC(=O)N1C2CCCC1CC(NC(=O)C1CC1)C2 (stereo not drawn)
38) O=C(COC(=O)C1CCC1)Nc1ccc(Oc2ccccc2)cc1
39) COc1cc(CNC(=O)CCCC(=O)c2ccccc2)cc(OC)c1OC
40) COc1cccc(CNC(=O)[C@H]2CCCN2C(=O)[C@H]2CCCN2C(=O)c2c(F)cccc2F)c1
compound no.	33	34	35	36	37	38	39	40
ALR H2O2 inh	0	x	x	x	-4	18	-1	x
Vif TR-FRET	-1%	2%	x	14%	u	3%	-23%	x
HNF4A DNA FP	-5.2	0.7	x	-0.7	4.9	0.9	-0.8	x
MLL AF4-AF9 inh	x	-18	1.1	-0.2	x	x	0.0	-0.6
Ecoli growth	0.7	0.61	x	0.62	0.72	0.67	0.66	x
rRNA inh HTS	x	9	2	-15	x	x	2	21
rRNA inh HTS OD600	x	6	1	-5	x	x	-11	14
rRNA inh HTS RFP	x	-1.4	-2.0	-5.1	x	x	-0.4	3.1
FGF22 binding	x	i	i	i	x	x	i	i

41) O=C(COc1ccccc1)N(Cc1nnc(-c2ccccc2Cl)o1)C1CC1
42) Cc1ccc(NC(=O)CSCC(=O)N2CCN(c3cccc(C(F)(F)F)c3)CC2)cc1
43) Cn1c(CNC(=O)Nc2ccccc2Cl)nnc1SCc1ccccc1
44) COc1cc(C(=O)NCCCc2nc3ccccc3n2Cc2cc(C)ccc2C)cc(OC)c1OC
45) Cc1[nH]n(-c2ccccc2)c(=O)c1C(=O)c1ccc(Cl)cc1
46) COc1cccc(NC(=O)Nc2ccc3c(c2)C(=O)N(C)[C@H]2CC[C@H](CC(=O)NCCc4ccccc4)O[C@@H]2CO3)c1
47) Cc1cc(C)cc(C(=O)NC(CC(N)=O)c2ccc(N3CCC(Br)CC3)c([N+](=O)[O-])c2)c1 (stereo not drawn)
48) CCCn1c(SCc2nc3ccccc3s2)n[nH]c1=O
compound no.	41	42	43	44	45	46	47	48
ALR H2O2 inh	1	-4	-3	-11	11	x	-2	72
Vif TR-FRET	-2%	-3%	u	-9%	-6%	x	x	1%
HNF4A DNA FP	3.6	-0.2	-1.4	37*	0.6	x	-4.5	-4.1
MLL AF4-AF9 inh	-0.9	-1.8	x	-14	2.7	4.5	-1.2	-1.4
Ecoli growth	0.66	0.69	0.74	0.77	0.68	x	0.64	0.64
rRNA inh HTS	-3	-10	x	0	-49	-7	15	8
rRNA inh HTS OD600	-13	-10	x	7	-77	-21	5	3
rRNA inh HTS RFP	3.0	4.2	x	-1.5	-26	1.3	10	-1.6
FGF22 binding	x	i	x	i	i	i	i	i

3 entries out of the list above, arranged by the number in Vif TR-FRET, descending.
No. | smiles | ALR H2O2 inh | Vif TR-FRET | HNF4A DNA FP | MLL AF4-AF9 inh | rRNA inh HTS | rRNA inh HTS OD600 | rRNA inh HTS RFP | FGF22 binding
42 | Cc1ccc(NC(=O)CSCC(=O)N2CCN(c3cccc(C(F)(F)F)c3)CC2)cc1 | -4 | -3% | -0.2 | -1.8 | -10 | -10 | 4.2 | i
45 | Cc1[nH]n(-c2ccccc2)c(=O)c1C(=O)c1ccc(Cl)cc1 | 11 | -6% | 0.6 | 2.7 | -49 | -77 | -26 | i
44 | COc1cc(C(=O)NCCCc2nc3ccccc3n2Cc2cc(C)ccc2C)cc(OC)c1OC | -11 | -9% | 37* | -14 | 0 | 7 | -1.5 | i
